Screens as filed in PubChem.
YopH inh: inhibitors of Yersinia enterocolitica YopH tyrosine phosphatase. fluorescence Ex485/Em525. inhibition, %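 (about 10 µM by stock and volumes)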. 0.16% of 140,000 active. AID 898;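 active = inhibition of 50% or more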;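 also: controls were vehicle for no effect and minimum signal wells for full effect; inactives centre near -20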
RecA intein inh: inhibitors of M. tuberculosis RecA intein splicing; P9WHJ3; cell-free RecA intein splicing, fluorescence; inhibition, %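 (about 9 µM by stock and volumes)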; 0.75% of 290,000 active; AID 2221; in the data active = inhibition above about 30%; inconclusive = no clear call, values can overlap the other calls;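 also: 0% = vehicle wells and 100% = reference inhibitor control wells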
Target sequence (P9WHJ3 whole entry, looked up): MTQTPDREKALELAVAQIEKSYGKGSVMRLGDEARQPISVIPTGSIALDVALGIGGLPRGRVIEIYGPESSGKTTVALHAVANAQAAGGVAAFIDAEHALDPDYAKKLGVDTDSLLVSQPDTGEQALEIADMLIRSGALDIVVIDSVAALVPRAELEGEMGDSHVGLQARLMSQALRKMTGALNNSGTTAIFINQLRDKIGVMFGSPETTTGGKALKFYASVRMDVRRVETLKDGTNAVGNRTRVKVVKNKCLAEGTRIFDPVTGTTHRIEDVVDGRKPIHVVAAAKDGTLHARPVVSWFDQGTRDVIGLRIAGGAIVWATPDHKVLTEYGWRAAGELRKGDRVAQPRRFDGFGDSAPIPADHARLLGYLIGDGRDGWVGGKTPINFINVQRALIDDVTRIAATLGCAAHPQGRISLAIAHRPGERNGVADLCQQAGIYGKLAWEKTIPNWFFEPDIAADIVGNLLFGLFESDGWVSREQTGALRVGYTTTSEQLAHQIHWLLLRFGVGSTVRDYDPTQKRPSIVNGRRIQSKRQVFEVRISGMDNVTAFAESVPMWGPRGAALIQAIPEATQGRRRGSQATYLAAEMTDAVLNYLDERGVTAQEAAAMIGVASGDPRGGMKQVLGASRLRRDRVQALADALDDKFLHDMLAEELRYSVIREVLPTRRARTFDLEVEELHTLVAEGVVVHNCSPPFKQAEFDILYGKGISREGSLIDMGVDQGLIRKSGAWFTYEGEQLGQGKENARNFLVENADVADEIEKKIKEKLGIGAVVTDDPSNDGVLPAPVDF
Arbovirus inh: arbovirus infection inhibition; arbovirus infection cell-based antiviral screen; inhibition, % at 10 µM; 0.37% of 200,000 active;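 active = inhibition from about 30%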;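 also: bluetongue infection of BSR cells; cell survival read as ATP light after 72 h; 0% = infected wells without compound and 100% = uninfected wells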
Mtb growth: M. tuberculosis H37Rv growth inhibitors, H37Rv strain (AID 1626). M. tuberculosis H37Rv growth inhibition; higher % means a stronger effect. inhibition, % at 10 µM; hits with a dose series show IC50 in µM. 0.95% of 220,000 active;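 active = confirmed in a dose series; inconclusive = inhibition above 80% but not taken into the dose series; inactive = below 80% or under 30% at every dose of the series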;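 also: bacteria incubated seven days before Alamar blue readout; 0% = bacteria only wells and 100% = bacteria with antibiotic wells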
Mtb betalactam: beta-lactam sensitization of Mtb H37Rv. 0.27% of 330,000 active. M. tuberculosis H37Rv growth with meropenem, percent inhibition; hits of this screen are not shown here. inhibition, % at 25 µM;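 active = about 74% or more and at least 40 points above the plate without the antibiotic, then above 30% in a dose series; inconclusive = first-round hits that could not be retested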;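 also: growth measured after seven days incubation then overnight dye step; 0% = bacteria only wells and 100% = bacteria with antibiotic; twin plates without the antibiotic show which effects depend on it; some results filed as inactive read as strong as hits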
Arbovirus inh repeat: second read-out of Arbovirus inh, no call of its own (marks repeat the call); inhibition, %; measured here: 10K subset replicate screen; many hits read low in the repeat;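 first of two repeat runs on a subset; 0% = infected and 100% = uninfected wells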
Starred values were filed as active, the others as inactive; ? = inconclusive; / = not tested or not shown. This is a subset, so the mix of outcomes need not match the whole.

SMILES	YopH inh	RecA intein inh	Arbovirus inh	Mtb growth	Mtb betalactam	others
Cc1ccc2cc3c(nc2c1)N(c1ccccc1)CC3	/	0.3	1	3%	3
Cc1cc(C(=O)Nc2cccc3ccccc23)c(C)o1	/	0.5	/	/	2
COc1ccccc1C(=O)NNC(=O)c1cccc(C)c1	/	-0.1	/	/	-4
COc1ccc(NS(=O)(=O)c2ccc(NC(=S)NC(=O)c3ccc(F)cc3)cc2)nn1	-10	-1.2	-3	2%	-1
C=CCNC(=S)NNC(=O)c1cccn(Cc2ccc(Cl)cc2)c1=O	-6	4.1	1	6%	13
O=C(COc1ccc(Br)cc1)Nc1ccc(S(=O)(=O)Nc2ccccn2)cc1	/	0.3	/	/	7
O=C(O)Cc1csc2ccccc12	-16	-2.5	-1	-3%	-3
CC(C)(C)SCCNC(=O)CN(c1ccccc1)S(=O)(=O)c1ccccc1	/	-1.6	3	9%	-3
Cc1ccc(S(=O)(=O)N(C)C)cc1NC(=O)COC(=O)C1(c2ccccc2)CC1	/	-2.4	/	/	-1
Cc1cc(/C=C2/NC(=O)N(c3ccccc3)C2=O)c(C)n1-c1cccnc1	-12	-1.7	11	1%	8
COc1ccc(CCn2c(C(C)C)nc3oc4ccccc4c(=O)c3c2=O)cc1	/	0.4	/	-6%	-14
CC(C)CCNC(=O)CSc1nc2ccccc2s1	/	0.9	1	0%	-2
Cc1ccc(NC(=O)C2CC(=O)n3c(nc4ccccc43)N2)cc1 (stereo not given)	-26	-1.0	-6	3%	-1
CC(C)NC(=S)Nc1ccc2nc3n(c(=O)c2c1)CCCCC3	-22	-3.2	-3	-2%	5
CC1(C)CCC/C(=C\c2ccccc2)C1=O	/	0.0	/	/	-3
CCc1c(C)nc2ncnn2c1Nc1ccccc1C	/	-1.0	/	/	2
Cc1cccc(-n2c(C)nc3cc(C(=O)NCC4CCCO4)ccc32)c1 (stereo not given)	/	-0.7	/	/	-2
COc1ccc(-c2ccc(=O)n(Cc3cc(=O)n4ccccc4n3)n2)cc1	-9	-1.1	14	-5%	-14
Cc1c(/C=N/n2cnnc2)c2ccccc2n1CCOc1ccccc1	-49	4.2	8	-4%	2
O=C(c1cc2c(s1)CCCC2)N1CCC2(CC1)OCCO2	8	0.2	2	-9%	-7
COc1ccc(C(=O)NC(=S)NNC(=O)c2cnccn2)cc1OC	-24	4.2	-19	-1%	-7
Cc1ccc(-c2noc(COc3ccccc3C)n2)cc1	11	3.8	-13	4%	1	Arbovirus inh repeat=4
COc1cc(C(=O)NCC(=O)N/N=C/c2ccccn2)cc(OC)c1OC	/	-0.7	2	0%	2
Cc1ccc(/C=N/NC(=O)c2n[nH]c3c2CCCC3)cc1	/	0.0	/	-7%	-3
CCOc1ccccc1NS(=O)(=O)c1cccs1	-26	-0.5	8	7%	2
COC(=O)C1(C)NC(c2ccc(O)cc2)C2C(=O)N(c3ccc(C)cc3)C(=O)C21 (stereo not given)	/	-2.2	/	/	-7
Cn1cc(S(=O)(=O)CC(=O)Nc2ccc3c(c2)OCCO3)c2ccccc21	-23	-1.9	10	3%	3	Arbovirus inh repeat=3
COC(=O)c1ccc(O)c(Sc2cc(C(=O)OC)ccc2O)c1	-45	3.9	15	/	12
CCOC(=O)C1=C(C)NC(=O)NC1c1ccc2c(c1)OCCO2 (stereo not given)	-42	1.3	3	-8%	-3
CCC(C)Nc1nc(SC(C(C)=O)C(C)=O)nc(N(C)C)n1 (stereo not given)	-43	-1.4	-1	4%	0
Cc1ccc(N2C(=O)C3NN=C(C(=O)OCc4ccccc4)C3C2=O)c(C)c1 (stereo not given)	-12	1.3	-2	-3%	-2
O=C(O)c1ccc(CN2C(=O)CSC2=S)cc1	-12	3.8	19	-8%	5
COc1ccc(C(=O)Oc2c(CN3CCOCC3)cc(Cl)c3cccnc23)cc1OC	-31	0.8	-7	-1%	47	Arbovirus inh repeat=-5
CN(C)c1ccc(CNC(=O)c2ccc(CNc3c(N4CCCCC4)c(=O)c3=O)cc2)cc1	-41	-1.9	2	1%	-4
O=C(CSc1ccc(-c2nc3ccccc3[nH]2)cn1)N1CCN(C(=O)c2ccco2)CC1	-48	-3.0	-13	-10%	-2
Cc1cnc(NC(=O)c2nn(C)cc2[N+](=O)[O-])s1	/	-6.7	-19	3%	/
COc1cc(C(C)=O)ccc1Oc1ncnc2c1cnn2-c1ccccc1	-29	0.3	5	-3%	2
C[C@@H](C[C@@H](O)[C@H](O)C(C)(C)O)[C@@H]1CC[C@]2(C)C3=CC[C@H]4C(C)(C)C(=O)CC[C@]4(C)[C@H]3CC[C@@]12C	-5	14	-37	15%	13
Nc1c(C(=O)N2CCCC2)sc2nc(-c3ccccc3)ccc12	/	-18	/	1%	-1
O=C(CSc1nc(Nc2ccccc2)nc(N2CCOCC2)n1)Nc1ccc2c(c1)OCCO2	-33	0.6	13	4%	0
COc1ccccc1Oc1ccc2c(c1)C(=O)N(c1ccc(Br)c3cccnc13)C2=O	-4	-3.6	14	-2%	9
CC(C)Cn1c(C(C)C)nc([N+](=O)[O-])c1Sc1ccc(Cl)cn1	38	11	-13	-8%	6
Cc1cccc(NC(=O)/C(C#N)=C\c2cn(CC(=O)O)c3ccccc23)c1	/	-6.5	2	-1%	-4
CCn1c(=O)n(CC)c2cc(S(=O)(=O)Nc3ccccc3C)c(C)cc21	-22	1.3	2	-20%	?
Cc1ccccc1C(=O)Nc1cccc(-c2ccc3nncn3n2)c1	/	1.7	-5	/	-16
CCOc1ccc(-n2c(SC(C)C)nc3c(c2=O)SCC3)cc1	-20	0.1	1	-8%	-4
CN(C)S(=O)(=O)c1ccc(C(=O)OCC(=O)Nc2ccccc2OC(F)F)cc1	-41	-2.1	2	3%	-4
CC(Oc1ccccc1)C(=O)N1CCC2(CC1)Oc1ccc(F)cc1C(=O)C21CC(c2ccc(Cl)cc2)=NO1 (stereo not given)	/	-0.1	/	2%	-6
O=C(O)c1ccc(-c2noc(-c3cccc(F)c3)n2)cc1	/	-3.9	/	-10%	-6
COCCn1c(SCC(=O)Nc2ccc(C)cc2)nc2c(oc3ccccc32)c1=O	-5	-6.4	-2	3%	6

Continuation:
SMILES	YopH inh	RecA intein inh	Arbovirus inh	Mtb growth	Mtb betalactam	others
CCOC(=O)c1nnn(-c2nn3nnnc3c3ccccc23)c1C	-19	0.6	9	1%	0
CCOc1ccc(Nc2nc3c(C)cccc3cc2C#N)cc1	/	-5.2	/	/	-2
Cc1cc2c(cc1S(=O)(=O)C(C)CC(=O)NCc1ccco1)OCC(=O)N2 (stereo not given)	/	3.3	/	/	5
O=[N+]([O-])c1ccc2nc(-c3cccnc3)[nH]c2c1	/	0.3	/	/	-3
CC(=O)Nc1ccc(S(=O)(=O)NCC2CCC(C(=O)NCCCOC(C)C)CC2)cc1 (stereo not given)	/	1.1	/	/	-7
CCOC(=O)c1ccc(NC(=O)CC2C(=O)OCCN2CC)cc1 (stereo not given)	/	1.0	-1	?	38
Cc1onc(-c2ccccc2)c1CNC(=O)Nc1cccc(Cl)c1	/	/	/	4%	0
COC(=O)c1cc(Cl)c(NC(=O)/C=C/c2ccc(Cl)cc2Cl)cc1OC	-32	-1.6	-17	7%	0
O=c1[nH]c(C2CCN(S(=O)(=O)c3ccc(S(=O)(=O)NC4CC4)cc3)CC2)nc2c1nnn2Cc1ccccc1	/	-1.8	/	/	3
CN(C)S(=O)(=O)c1cccc(NC(=O)CCNC(=O)c2ccccc2Cl)c1	-9	0.7	1	-4%	-4

Seven entries from above, ordered by length of the SMILES, falling:
SMILES	YopH inh	RecA intein inh	Arbovirus inh	Mtb growth	Mtb betalactam	others
O=c1[nH]c(C2CCN(S(=O)(=O)c3ccc(S(=O)(=O)NC4CC4)cc3)CC2)nc2c1nnn2Cc1ccccc1	/	-1.8	/	/	3
CC(=O)Nc1ccc(S(=O)(=O)NCC2CCC(C(=O)NCCCOC(C)C)CC2)cc1 (stereo not given)	/	1.1	/	/	-7
Cc1cc2c(cc1S(=O)(=O)C(C)CC(=O)NCc1ccco1)OCC(=O)N2 (stereo not given)	/	3.3	/	/	5
CN(C)S(=O)(=O)c1cccc(NC(=O)CCNC(=O)c2ccccc2Cl)c1	-9	0.7	1	-4%	-4
CCOC(=O)c1ccc(NC(=O)CC2C(=O)OCCN2CC)cc1 (stereo not given)	/	1.0	-1	?	38
CCOC(=O)c1nnn(-c2nn3nnnc3c3ccccc23)c1C	-19	0.6	9	1%	0
CCOc1ccc(Nc2nc3c(C)cccc3cc2C#N)cc1	/	-5.2	/	/	-2

Following part:
SMILES	YopH inh	RecA intein inh	Arbovirus inh	Mtb growth	Mtb betalactam	others
O=S(=O)(NCc1ccc2c(c1)OCO2)c1ccccc1F	/	-1.1	/	/	-1
O=C(CSc1nnc(CNC(=O)c2ccccc2)o1)NCc1ccccc1	/	1.1	/	/	?
Cc1cc(C)cc(C(=O)N2CC(C)OC(C)C2)c1 (stereo not given)	1	-2.8	2	-6%	-16
COc1ccc(C2(c3ccc(OC)cc3)NC(=O)N(CC(=O)Nc3ccc(OC)c(OC)c3)C2=O)cc1	/	6.7	/	/	9
Cc1cc(-c2csc(NCc3ccccc3)n2)c(C)n1C	/	/	8	13%	/
COC(=O)c1c(-c2ccccc2)csc1NC(=O)c1ccco1	-13	0.2	-3	-4%	0
c1coc(CNc2ncnc3c2oc2ccccc23)c1	-26	/	1	10%	6
Cc1ccc(C(=O)C2CCN(S(=O)(=O)c3ccc(C(=O)O)cc3)CC2)cc1	/	-1.6	/	/	2
C/C(=N\NC(=O)c1nnn(-c2nonc2N)c1CSc1ccc(C)cc1)c1ccco1	/	-0.9	/	/	0
CC(C)Cc1ccc(CN2CCCC(NC(=O)CCCN3CCCC3=O)C2)cc1 (stereo not given)	/	0.8	/	/	6
Cc1cc(C(=O)NNC(=S)NC(C)c2ccccc2)cs1 (stereo not given)	-19	1.0	-1	-1%	-4
CN(CCNC(=O)C1(O)c2ccccc2NC(=O)N1c1ccccc1)Cc1ccccc1 (stereo not given)	9	/	9	-8%	-9	Arbovirus inh repeat=4
O=C(c1cc(Cl)cc(Cl)c1)N1CCN(c2cc(C(F)(F)F)nc3ccccc23)CC1	/	2.9	/	-7%	1
COCCNC(=O)c1ccc(S(=O)(=O)N2CCCc3ccccc32)cc1	/	1.0	/	/	6
CCOc1cc(CN2CCCC(N3CCN(c4ccc(F)cc4)CC3)C2)ccc1OC (stereo not given)	/	0.2	/	/	8
CC(=O)c1c(C)[nH]c(C(=O)Nc2ccc(C)c(S(=O)(=O)Nc3ccc(C)cc3C)c2)c1C	/	9.6	/	10%	50
COc1ccc(NC(=O)C2CCN(C(=O)c3cccs3)CC2)cc1OC	-17	-2.8	-2	-12%	-5
Cc1nc(NS(=O)(=O)c2cccc([N+](=O)[O-])c2)sc1C(C)(C)C	/	1.7	/	/	0
CC(=O)NC(Cc1ccccc1C)C(=O)NC1CCN(C(=O)c2ccc(C)cc2)CC1 (stereo not given)	/	2.0	-1	-9%	-4
COc1ccccc1N/N=C1\COC(C)(C)CC1=O	/	1.7	/	-2%	2
N#Cc1c(SCC(=O)O)nc(N2CCOCC2)c2c1CCCC2	/	2.2	/	-2%	19
CC(=O)Nc1c2c(nn1-c1ccc(F)cc1)CSC2	/	-0.8	/	/	3
CC1=NN(c2ccccc2)C(=O)/C1=C\c1cn(C)c2ccccc12	/	39*	14	-4%	7
CCCn1c(SCC(=O)Nc2ccc(Cl)cn2)nnc1C1CC1	/	0.6	/	/	-6
Cc1ccccc1NC(=O)c1cccnc1	/	-1.5	/	/	1
CCC(C)NC(=O)CN1C(=O)NC2(CCOc3ccccc32)C1=O (stereo not given)	/	-2.6	/	/	2
COC(=O)C1(CCSC)NC(c2ccc(O)cc2)C2C(=O)N(c3ccc4c(c3)OCCO4)C(=O)C21 (stereo not given)	-32	0.2	10	-10%	0
N#Cc1ccc(OCC(=O)NCCc2ccc(S(N)(=O)=O)cc2)cc1	7	9.2	9	-5%	-5
COc1ccc(N2CCN(S(=O)(=O)c3c(C)[nH]c(C)c3C(=O)N3CCCCC3)CC2)cc1	/	-1.8	/	/	5
Cc1ccc(C(C)(C)NC(=O)C2CCC(=O)N(CC3CCCCC3)C2)cc1 (stereo not given)	/	0.6	/	/	-1
COc1ccccc1C(=O)N1CCN(c2cccc(Cl)c2)CC1	8	0.1	-14	4%	1	Arbovirus inh repeat=-14
O=C(CN1C(=O)COc2ccc(S(=O)(=O)N3CCOCC3)cc21)Nc1cccc(Cl)c1	/	-1.2	/	/	1
Cc1cc(=O)[nH]c(N/N=C/c2ccc(Cl)c([N+](=O)[O-])c2)n1	/	-1.6	/	-3%	-7
FC(F)Oc1ccc(-c2csc(Cc3nnc4n3CCCCC4)n2)cc1	-3	0.9	-5	2%	/
FC(F)(F)Sc1ccc(NC(=S)NCc2ccccc2)cc1	/	5.8	/	16%	3
